# Source: PubChem
# Tgondii IFNg = T. gondii growth inhibition with IFN-gamma, primary screen, cell-based. AID 1259416, 2018. actives 3.8% (n = 69,000). Toxoplasma gondii growth in IFN-gamma-treated host cells; stronger effect = lower value; reference of the scale not given here. activity change, negative = inhibition, %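 (about 20 µM by stock and volumes)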;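 active means below -70%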;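 further: host cells are HeLa cells infected with Toxoplasma gondii; parasite growth read as luciferase light; one replicate is shown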
# Active calls of the source: *; i = inactive; & = joins results of further samples; ! = not confirmed by another sample. This is a subset; rates above refer to the full screens.
SMILES,Tgondii IFNg
COc1ncccc1-c1ccc2c(c1)CNCC2,-3.1
CCC1C(C)=NN=C(c2ccc(OC)c(OC)c2)c2cc(OC)c(OC)cc21 (stereo not drawn),6.4
CO[C@@H]1CCN(Cc2cc(C)on2)[C@H]2CN(CC3CC3)C[C@@H]12,-37.7
CCC(=O)Nc1ccc(OCC(=O)N2CCCN(C)CC2)cc1,11.3
O=C(O)Cc1cccnc1C(=O)O,13.7
CCN1C[C@@H]2N(c3ncccn3)CCC[C@@]2(C(=O)NCC2CC2)C1,10.5
COc1ccccc1[C@@H]1CN(S(=O)(=O)N(C)C)[C@@H]2C3CCN(CC3)[C@@H]21,5.4
O=C(NCc1ccc(F)cc1F)c1c(O)c2cccnc2n(Cc2ccccc2)c1=O,-104.3*
CCNC(=O)[C@@H]1CN(Cc2ccccc2)C[C@H]1C(=O)c1ccc(F)cc1,48.0
Fc1cnc(NC2COC3(CCN(Cc4ccccc4)C3)C2)nc1 (stereo not drawn),-5.1
O=C(Nc1ccc2c(c1)OCCO2)c1cc2cccnc2n(Cc2ccccc2)c1=O,i
Cc1nc(CC(=O)N2CCN(Cc3ccco3)C(CCO)C2)cs1 (stereo not drawn),22.0
CCc1ccccc1NC(=O)c1cc2cccnc2n(Cc2ccccc2F)c1=O,0.9
CNC(=O)[C@H]1C[C@@H]2OCC[C@@H]2N(Cc2ccc3ccccc3n2)C1,7.7
COc1ccc2n[nH]c(CN3C[C@@H]4[C@H](C3)[C@H]3CC[C@@H]4O3)c2c1,27.1
Cn1c(O)c(C=NCCc2c[nH]c3ccccc23)c(=O)n(C)c1=O,-15.8
CC(Cn1cncn1)NCCN1CCc2ccccc21 (stereo not drawn),4.0
CC(C(=O)NCc1cnn2ccccc12)N1CCCC1=O (stereo not drawn),-0.7
CCCN1CCC[C@H](c2cccc(O)c2)C1,14.5
CCN(CC)C(=O)N[C@H]1C=C2c3cccc4[nH]cc(c34)C[C@H]2N(C)C1,0.6
O=C(Nc1ccc(Cl)cc1)c1cc2cccnc2n(Cc2ccccc2F)c1=O,14.4
CN1[C@H]2CC[C@@H]1CN(c1ccnc(N)n1)CC2,-44.7
CCOc1ccc2[nH]c(=O)c(CN3[C@@H]4CC[C@H]3CC(O)C4)cc2c1 (stereo partly drawn),8.6
O=C(NCC1CCC2(CNCCOC2)O1)c1ccnnc1 (stereo not drawn),-24.8
CN=C(NS(=O)(=O)c1ccc(Cl)cc1)N1C[C@H](c2ccccc2)C(c2ccc(Cl)cc2)=N1,-4.7
SMILES,Tgondii IFNg
CNC(=O)[C@H]1CC2CN(C(=O)Cc3ccsc3)CC2N1C (stereo partly drawn),i
CC(C)[C@@]1(NC(=O)[C@@H]2C[C@@H]3c4cccc5[nH]cc(c45)C[C@H]3N(C)C2)O[C@@]2(O)[C@@H]3CCCN3C(=O)[C@H](Cc3ccccc3)N2C1=O,-65.9&-42.5
COC1(C[S@@](=O)c2ccccc2)CCN(CCc2c[nH]c3ccc(F)cc23)CC1,19.9
COc1cc(N2CCCC3(CCN(C)C3)C2)ncn1 (stereo not drawn),60.6
CC1(C)CN=C(Nc2ccccc2)S1,-26.6
Cn1ccnc1C1(O)CCCC2CNCC21 (stereo not drawn),29.4
CCN1CCN(C(=O)Cc2ccc(Nc3ncc(F)c(Nc4ccc(C(=O)Nc5ccccc5Cl)cc4)n3)cc2)CC1,-72.8*
Cn1cc(C2=C(c3cn(C4CCN(Cc5ccccn5)CC4)c4ccccc34)C(=O)NC2=O)c2ccccc21,20.4
c1cncc(COC[C@@]23COC[C@@H]2CN(Cc2ccco2)C3)c1,-1.9
CN1CCN(C)C2(CCN(c3cc(NCCO)ncn3)CC2)C1,6.4
COc1cccc(OC[C@@H]2C3CCC(C3)N2Cc2cccnc2)c1 (stereo partly drawn),-29.6
C=CCN1CC(C(=O)O)CN2CCN(C(=O)Cc3ccccc3)CC2C1 (stereo not drawn),41.8
c1cncc(CN2CC[C@H]3[C@@H]2CCN3Cc2ccoc2)c1,-3.5
CN(Cc1ccco1)C(=O)c1cn(Cc2ccccn2)cc(C(=O)NC2CCCCCCC2)c1=O,-9.4
CCN(CC)CCNC(=O)c1cc2cccnc2n(Cc2ccccc2)c1=O,3.3
O=C(O)CN1C[C@@H]2C(NC(=O)c3ccno3)[C@H]2C1 (stereo partly drawn),-29.0
CC(C)NC(=O)[C@H]1COC[C@H]2CN(Cc3ccncc3)C[C@@H]21,-34.6
Cc1ccnc(CC(C)N(C)CCc2ccccc2)c1 (stereo not drawn),15.8
COc1ccc([C@@H]2CN(c3noc(C)n3)[C@@H]3C4CCN(CC4)[C@@H]32)cc1,3.0
C=C1[C@@H](C)[C@H]2[C@H](Cc3ccccc3)NC(=O)[C@]23OC(=O)/C=C\[C@H](O)CCC[C@@H](C)C/C=C/[C@H]3[C@@H]1O,-45.1
CC1CN2CCC3=C(CCCC3)C2(C)C1 (stereo not drawn),16.1
COc1cccc(C(=O)Nc2ccc(Br)cc2C(=O)c2ccccc2Cl)c1,57.1
CNC(=O)[C@H]1CC2CN(c3cc(OC)ncn3)CC2N1C(C)C (stereo partly drawn),-1.3
Cc1cccc(CN2C(=O)C[C@H]3[C@H]2CCN3Cc2ccc(C)s2)n1,0.1
CCCc1cncnc1N1CCN2CCN(C)C(=O)C2C1 (stereo not drawn),97.2
SMILES,Tgondii IFNg
NS(=O)(=O)c1ccc(CCNC(=O)c2cc3cccnc3n(Cc3ccccc3)c2=O)cc1,-61.6
CC(C)N1C[C@H]2COC[C@@H](CC(=O)NCCc3ccccn3)[C@H]2C1,-0.1
Cc1cccc(CN2C[C@@H](C(=O)N3CCCCO3)[C@@H]3OCC[C@H]32)n1,-42.6
COc1cccc(OC)c1OCC(=O)N1CCN(Cc2ccccn2)CC1,-10.5
COCCn1c(C)c(C(=O)NC2CCOc3ccccc32)c2ccccc21 (stereo not drawn),2.0
Cc1noc(C)c1CN1C[C@H]2CN(C(=O)c3cscn3)C[C@@H]2C1,27.2
CN1c2ccccc2C(NCCCCCCC(=O)O)c2ccc(Cl)cc2S1(=O)=O (stereo not drawn),7.8
CC(C)(C)CC(=O)N1C[C@H]2C[C@@H]1CN2,37.2
Cc1csc(CN2C[C@H]3CN(C)CCO[C@@H]3C2)n1,2.7
O=C(NCc1ccco1)c1cc2cccnc2n(Cc2ccccc2F)c1=O,31.9
Cc1nc(SCC(=O)N2C[C@@H](c3ccccc3)[C@@H]3[C@H]2C2CCN3CC2)n[nH]1,0.7
C/C=C/c1ccc([C@H]2[C@H]3CN(C(=O)Cc4cccnc4)CCCCN3[C@H]2CO)cc1,5.3
Cc1cccc(C)c1NC1=NCCCCS1,18.8
C=CCO[C@@H]1C[C@@H]2CN(C(=O)Cc3ccccn3)CCN2C1,91.6
CN1C[C@@H]2c3nc(N(C)C)ncc3CS(=O)(=O)[C@H]2C1,43.7
CN(C)C(=O)CN1CCCC2(CCN(c3ccc(C#N)cn3)C2)C1 (stereo not drawn),-47.1
c1ccc2c(c1)[I+]c1ccccc1-2,-75.9*!
Cc1nccc([C@H]2C[C@@H]3CN(Cc4cc(C)on4)CC[C@H]3O2)n1,i
COc1cccc2c1C(=O)c1c(O)c3c(c(O)c1C2=O)C[C@@](O)(C(=O)CO)C[C@@H]3O[C@H]1C[C@H](N2CCO[C@H](OC)C2)[C@H](O)[C@H](C)O1,-80.8*
c1cncc(CN2CCO[C@H]3[C@@H](Oc4cccnc4)CC[C@H]32)c1,7.6
CCN1CC2(COC(=O)c3ccccc3N3C(=O)CC(C)C3=O)CCC(OC)C34C5CC6C(OC)CC(O)(C5C6OC)C(O)(C(OC)C23)C14 (stereo not drawn),8.0
Cc1noc(C)c1CN1CC[C@@H]2C[C@H](c3ccncn3)O[C@H]2C1,2.9
Cc1ccc(CN2CCC3O[C@@H](COc4cccnc4)CCC32)o1 (stereo partly drawn),71.6
CNc1ncccc1C(=O)N1CCC2(CCN(C)C2)CC1,-0.1
Cc1noc(C)c1CN1CC[C@@H]2C[C@H](c3nccs3)O[C@H]2C1,51.2
SMILES,Tgondii IFNg
CC(C)(O)[C@H]1O[C@H]2CC[C@@]3(C)[C@@](O)(CC[C@H]4Cc5c([nH]c6ccccc56)[C@@]43C)C2=CC1=O,88.3
COCCCNC(=O)c1cc2cccnc2n(Cc2ccc(F)cc2)c1=O,-9.2
N#Cc1ccccc1-c1cc(-c2ccccn2)cn(-c2ccccc2)c1=O,7.3
O=C(CCC1C(=O)NC(=O)NC1=O)Nc1ccc(Oc2ccc(F)cc2)cc1,10.1
Cn1cc(CN2CCCC3(CCN(c4cccnc4)C3=O)C2)cn1 (stereo not drawn),-4.3
Cc1ccc(C2=CCN(CC(=O)Nc3ccc(N(C)C)cc3)CC2)o1,11.6
Fc1cnc(N2CCN3C[C@H](Oc4cncnc4)C[C@@H]3C2)nc1,26.1
CN(C)C(=O)Oc1ccc(Br)cc1C(=O)Nc1ccc(F)c(Cl)c1,-100.7*
OC[C@@H]1[C@H]2c3ccccc3NC[C@H]2N1Cc1cccnc1,-9.7
Cc1cnc(N2CCC3C(C[C@@H](CN(C)C)N3C)C2)nc1 (stereo partly drawn),0.6
CC12CN3CC(C)(CN(C1)C31CCOCC1)C2=O,-18.1
CN1C(=O)C(C(=O)/C=C/c2ccc(Cl)cc2)C2c3ccccc3OC13CCCC23 (stereo not drawn),15.0
Cc1cccc(C)c1NC(=O)c1cc2cccnc2n(Cc2ccccc2)c1=O,-16.8
O=c1cccc2n1C[C@@H]1C[C@H]2CN(Cc2cc3n(n2)CCNC3)C1,-0.2
C=CCN1CC[C@@H]2[C@@H]1CCN2C(=O)c1cncc(C)c1,-98.4*
Cc1ccc(CNC(=O)c2cc3cccnc3n(Cc3ccccc3)c2=O)cc1,53.0
O=C(Nc1cccc(F)c1)C1C2CCC1CNC2 (stereo not drawn),24.1
CCC[C@@H]1CC2=CC(=O)CC[C@]2(C)[C@H]2CC[C@@]3(C)[C@@H](CC[C@@]3(O)CCC(=O)O)[C@H]12,24.8
CCN1C[C@H]2CN(Cc3nccn3C)C[C@H]2C1=O,-4.4
CC(Cc1cccnc1)NCc1c(C(=O)N2CCCCCCC2)nc2ccc(Cl)cn12 (stereo not drawn),-42.8
CCCCCCCCCOc1ccc2[nH]cc(CCN)c2c1,13.8
CCc1cc2c(cc1-c1cnc(Nc3ccccc3)s1)C(C)(C)CCC2(C)C,-55.0
C[C@@H]1C[C@@H]2CN(Cc3ccncc3)C[C@@H]2O1,-6.1
C[C@]12CC[C@@H](O)C[C@@H]1CC[C@@H]1[C@@H]2CC[C@]2(C)[C@@H](O)CC[C@@H]12,4.2
C=CCOC1C2CCC1N(Cc1cccnc1OC)C2 (stereo not drawn),0.8
SMILES,Tgondii IFNg
O=C(Nc1ccccc1C(F)(F)F)c1cc2cccnc2n(Cc2ccccc2)c1=O,4.3
Cc1cc(C)cc(NC(=O)c2cc3cccnc3n(Cc3ccccc3F)c2=O)c1,84.0
FC(F)(F)c1cccc(-c2cccc3c2CCNC3)n1,0.7
CCN1C[C@H]2[C@@H](OC)CCN(C(=O)c3ncccn3)[C@H]2C1,40.6
Cc1cccc(CN2CC[C@H]3CO[C@H](CNS(C)(=O)=O)[C@@H]3C2)n1,-2.3
CC(NC(=O)c1cc2cccnc2n(Cc2ccc(F)cc2)c1=O)c1ccccc1 (stereo not drawn),-115.3*
O=C(Nc1ccccc1F)c1cc2cccnc2n(Cc2ccc(Cl)cc2)c1=O,30.0
COc1ccc(NC(=O)c2cc3cccnc3n(Cc3ccccc3)c2=O)cc1,235.5
CCCCC/C=C\C/C=C\C/C=C\C/C=C\CCCC(=O)NCCO,8.9
Cc1n[nH]c(C)c1CCCNC(C)Cc1ccccc1F (stereo not drawn),-2.0
CS(=O)(=O)CC(=O)N1CCCC2(CCNC2)C1 (stereo not drawn),3.8
CC(Cc1ccccn1)N(C)Cc1cc2c(cc1Cl)OCO2 (stereo not drawn),-2.7
c1cncc(CN2CCOCC3(CCC(CN4CCCC4)O3)C2)c1 (stereo not drawn),44.1
CS(=O)(=O)N1CC[C@@H]2OCCN(Cc3cccnc3)[C@@H]2C1,-5.3
CC(C)CC(NC(=O)C(Cc1ccccc1)NC(=O)CNC(=O)[C@H](C)NC(=O)C(N)Cc1ccc(O)cc1)C(=O)N[C@H](CCCN=C(N)N)C(=O)O (stereo partly drawn),12.1
O=C([C@H]1CCCO1)N1CCCN2CCC[C@H]2C1,33.0
Cc1noc(C)c1CN1CC2CC(C1)N(C(=O)c1ccco1)C2 (stereo not drawn),135.3
O=C(C1CC1)N1C[C@H]2CN(Cc3ccccn3)C[C@@H]2C1,76.1
C[C@@H]1CN([C@@H](C)CO)C(=O)CCCn2cc(nn2)CO[C@H]1CN(C)C(=O)Oc1ccc2ccccc2c1,196.7
O=C(O)CN1C[C@H]2CCN(c3cccnc3)C(=O)[C@H]2C1,-20.4
O=C(c1ccco1)N1C2CCC1CNC2,40.2
C=CC1(O)CCC2C3CC=C4CC(OC(C)=O)CCC4(C)C3CCC21C (stereo not drawn),-39.0
